Marburg entry inh – blocks Marburg virus binding to or entry into cells. Marburg virus pseudotyped entry inhibition, cell reporter; control for the full effect not named in the record; about a third of the inactives were read at about 46 µM. Potency, µM (highest dose often 37.8 µM), inactives show top-dose activity change, negative = inhibition, hits mostly inhibitors. 1.8% of 300,000 active. AID 540276; active = well fitted inhibition curve with a large enough effect; inconclusive = small, poorly fitted or top-dose-only effect, or effect the other way; inactive = flat fitted curve, though single readings scatter; tested in HEK293 cells; about a fifth of its hits are not listed in these tables; further: on the % scale 0 is the no-effect control and ±100 the full control effect; luciferase read-out
StopGo reporter – lowers the luciferase signal of an FMDV 2A StopGo reporter; human cells with a luciferase reporter of 2A StopGo recoding; control for the full effect not named in the record; Potency, µM (doses to about 57.9 µM), without a hit: at the highest dose signal change, negative = less light; 1.2% of 410,000 active; AID 1159524; active = well fitted falling curve with a large enough effect; inconclusive = small, poorly fitted or top-dose-only effect; inactive = no such curve, though single readings can be large or run the other way; tested in HEK293T cells; further: on the % scale 0 is the no-effect control and ±100 the full control effect; nearly all actives have a fitted effect of over 45% in size; luciferase light after 4 h
NS1 function inh – inhibitors of influenza NS1 protein function. S. cerevisiae slowed by influenza A NS1, growth recovery by OD600. Potency, µM (titrated, usually from 46.1 µM), without a hit: top-dose activity, positive = more growth. 0.4% of 270,000 active. AID 2326; active means well fitted rising curve with a large enough effect; inconclusive means small, poorly fitted or top-dose-only effect; inactive means no such curve, though single readings can be large or run the other way; further: nearly all actives have a fitted effect of over 50% in size
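Compounds were scored for reversing the slow growth caused by influenza A NS1 in S. cerevisiae, measured by optical density at 600 nm. Assay medium contained 2% galactose at pH 6.0; NS1-free yeast of the same strain were the positive control.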
Cruzain inh Det – blocks cruzain activity in presence of Triton detergent | purified cruzain, Z-FR-AMC fluorescence, 0.01% Triton | Potency, µM, inactives show max response, negative = inhibition, most hits filed as inhibitors | 0.43% of 200,000 active | AID 1478;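 further: plate controls were neutral wells for no effect and buffer without enzyme for full effect; nearly all actives have a fitted effect of over 40% in size; top concentration of the series not given in the record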
Target sequence (P25779 123-467 limits assumed): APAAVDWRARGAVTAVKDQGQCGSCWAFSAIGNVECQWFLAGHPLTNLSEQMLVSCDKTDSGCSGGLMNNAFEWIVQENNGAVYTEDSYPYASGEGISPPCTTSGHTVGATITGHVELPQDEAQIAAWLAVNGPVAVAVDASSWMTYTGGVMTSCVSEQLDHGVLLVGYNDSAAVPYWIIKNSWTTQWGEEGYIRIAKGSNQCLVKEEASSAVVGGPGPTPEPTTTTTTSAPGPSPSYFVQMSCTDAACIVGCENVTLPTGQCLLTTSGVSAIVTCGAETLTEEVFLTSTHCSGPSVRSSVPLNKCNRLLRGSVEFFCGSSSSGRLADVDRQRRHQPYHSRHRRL
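Sodium acetate buffer (100 mM, pH 5.5) containing 5 mM DTT and 0.01% Triton X-100 hosted 1.5 nM cruzain and test compound for 15 min at room temperature. Cleavage of 2 uM Z-FR-AMC was then tracked by fluorescence.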
Lassa entry inh – Lassa virus entry inhibition | AID 540256 | 1.2% of 300,000 active | Lassa virus pseudotype entry inhibition, cell reporter; control for the full effect not named in the record | Potency, µM (series often up to 37.9 µM), for the others: top-dose activity change, negative = inhibition, hits mostly inhibitors; active means well fitted inhibition curve with a large enough effect; inconclusive means small, poorly fitted or top-dose-only effect, or effect the other way; inactive means flat fitted curve, though single readings scatter; tested in HEK293 cells; further: on the % scale 0 is the no-effect control and ±100 the full control effect; nearly all actives have a fitted effect of over 50% in size; luciferase read-out
SARS PLpro yeast – inhibitors of SARS-CoV papain-like protease in yeast; S. cerevisiae expressing SARS-CoV PLpro, growth rescue; control for the full effect not named in the record; Potency, µM (top dose mostly 32.9 µM), for the others: at the top dose activity, positive = growth rescue; 0.19% of 330,000 active; active means well fitted rising curve with a large enough effect; inconclusive means small, poorly fitted or top-dose-only effect; inactive means no such curve, though single readings can be large or run the other way; further: 0% is about no effect; nearly all actives have a fitted effect of over 55% in size; growth read by luminescence after 48 h
RE007 growth inh – less growth of the S. pombe RE007 Vpr strain | S. pombe RE007 Vpr strain, BacTiter-Glo ATP luminescence, 24 h; control for the full effect not named in the record | Potency, µM (doses to about 92.2 µM), for inactives: at the top dose activity change, negative = less growth | 0.21% of 360,000 active; active = well fitted falling curve with a large enough effect; inconclusive = small, poorly fitted or top-dose-only effect; inactive = no such curve, though single readings can be large or run the other way;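 further: on the % scale 0 is the no-effect control and ±100 the full control effect; nearly all actives have a fitted effect of over 50% in size; the assay follows cell death caused by Vpr and the record does not say whether a fall means rescue or toxicity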
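Fission yeast strain RE007, carrying one chromosomally integrated HIV-1 vpr copy, was seeded at OD 0.01 in PMG+AL medium with 23 nL pinned compound. After 24 h at 30 °C and 99% humidity, viability was read by BacTiter-Glo luminescence.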
Cruzain noTriton – inhibitors of Trypanosoma cruzi cruzain without detergent; purified cruzain, Z-FR-AMC fluorescence, no detergent; P25779; Potency, µM, for the others: max response, negative = inhibition, most hits filed as inhibitors; 2.3% of 200,000 active;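 further: plate controls were enzyme without inhibitor for no effect and buffer without enzyme for full effect; nearly all actives have a fitted effect of over 40% in size; top concentration of the series not given in the record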
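Purified cruzain at 1.5 nM, pre-incubated 15 min with compound at room temperature in 100 mM sodium acetate pH 5.5, 5 mM DTT, 0.00005% Triton X-100. Reaction started with 2 uM Z-FR-AMC; AMC fluorescence increase over 60 s gives rate.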
An asterisk follows results filed as active; ? = inconclusive; nt = no result given; & = joins results of further samples; [ ] = remark or other dose. Unless noted, the call rests on the fitted dose curve; in most records, active means well fitted curve in the direction sought with a large enough effect; inconclusive means small, poorly fitted or top-dose-only effect, or another doubt; inactive means no such curve, though single readings can be large; an effect the other way counts as inactive or inconclusive. Potency means the concentration at half of the fitted maximal effect. Not a hit list. Share with any hit: about 4.5%.

SMILES | Marburg entry inh | StopGo reporter | NS1 function inh | Cruzain inh Det | Lassa entry inh | SARS PLpro yeast | RE007 growth inh | Cruzain noTriton
CN1CCC(n2[nH]c(-c3ccccc3)c(Cc3ccccc3)c2=O)CC1 | ? | -9% | 0% | 1.5% | 26%[46.1 µM] | nt | 8% | -5%
C=CCn1c(N)cc(=O)nc1SCC(=O)Nc1ccc(C(=O)OCC)cc1 | 8%[46.1 µM] | 5% | 11% | nt | -11%[46.1 µM] | -1% | -10% | nt
COc1ccc(C(NC(=O)CC(C)C)c2c(O)ccc3ccccc23)cc1 (stereo not given) | nt | 29% | -3% | nt | nt | 0% | 5% | nt
CC1CC(=O)N(c2ccc(N(C)Cc3ccccc3)c([N+](=O)[O-])c2)C1=O (stereo not given) | 9%[46.1 µM] | 19% | nt | nt | -1% | 0% | -7% | nt
CCN(c1ccc(C(O)(C(=O)OC)C(F)(F)F)cc1)S(=O)(=O)c1ccccc1 (stereo not given) | 1% | 9% | -4% | -4.1% | ? | -5% | 8% | 11%
COC(=O)Cn1nc(-c2ccc(C)cc2)c2ccccc2c1=O | 7%[46.1 µM] | -3% | nt | nt | nt | -33% | -1% | nt
COc1ccc2oc(C(=O)OCC(=O)N(C)c3ccccc3)c(C)c2c1 | 22%[46.1 µM] | -7% | nt | nt | 1% | -3% | -3% | nt
Brc1ccc(-c2nc3ccccc3s2)s1 | ? | 0% | -4% | -2.4% | ? | ? | ? | -23%
O=C(Nc1cc(C(F)(F)F)ccc1Cl)C(=O)N1CCCCC1 | 10% | 17% | -4% | -4.2% | ? | -2% | 4% | 2%
CC(C)(C)C(=O)NC(=S)N1CCOCC1 | -6% | 2% | 10% | -3.7% | 11% | -5% | -12% | 0%
Cn1nccc1C(=O)N1CCCC(C(=O)c2ccc(Oc3ccccc3)cc2)C1 (stereo not given) | nt | -22% | -22% | nt | nt | -13% | -13% | nt
CC(C)(C)c1ccc(S(=O)(=O)CC(O)CSc2nc3c(cc2C#N)CCCC3)cc1 (stereo not given) | ? | 11% | 3% | -1.5% | 11% | -12% | -8% | -4%
N#Cc1ccsc1NC(=O)CN1CCN(c2ccc(O)cc2)CC1 | ? | 23% | ? | -1.3% | -6% | 18% | nt | 2%
O=C(Nc1ccc(F)cc1F)c1ccc2c(c1)CCN2S(=O)(=O)c1ccc(Cl)cc1 | -11%[46.1 µM] | -18% | nt | -2.7% | ? | nt | nt | ?
CCOc1ccc(NC(=S)Nc2cccc3ccccc23)cc1 | 1%[46.1 µM] | 30% | ? | nt | 8%[46.1 µM] | 24% | 14% | nt
O=S(=O)(Nc1cccc(-c2ccc3nncn3n2)c1)c1ccccc1F | -12%[46.1 µM] | 10% | nt | nt | 5% | 0% | -8% | nt
Cc1ccc(-c2nnc(NCc3nc4ccccc4[nH]3)c3ccccc23)cc1S(=O)(=O)N1CCCCC1 | ? | 0% | ? | -1.9% | -18% | -7% | 4% | 13µM*
Cc1cccc(N2CCN(C(=O)C3CCCN(S(=O)(=O)c4cnc[nH]4)C3)CC2C)c1 (stereo not given) | 0% | -13% | -14% | -1.2% | -13% | 9% | 0% | ?
COc1ccc2[nH]c(=O)c(CN(Cc3ccco3)Cc3nnnn3Cc3ccccc3)cc2c1 | -18% | -16% | 13µM* | 3.9% | -13% | 10% | -9% | 5%
Cc1ccc(-n2cc(CN3CCNC(=O)CC3)c(-c3cccc(C)c3)n2)cc1 | ? | -9% | -7% | nt | -14% | -1% | -17% | nt
Cc1cc(C)cc(C(=O)N2CCC3(CC2)NCCc2[nH]cnc23)c1 | nt | -19% | -8% | nt | nt | -4% | 4% | nt
Cc1ccc(-n2ncc3c(NCCCN4CCOCC4)ncnc32)cc1Cl | nt | ? | nt | 0.5% | ? | nt | nt | -2%
Cc1ccc(CNc2nc3ccccc3c3nc(-c4cccc(C)c4)nn23)cc1 | 11%[46.1 µM] | 19% | nt | 1.2% | nt | nt | nt | 2%
COc1ccc(CN(C)C(=O)c2cc(-c3ccccc3)nc3ccc(C)cc23)c(OC)c1OC | ? | -10% | -8% | nt | ? | -11% | 32% | nt
C=CCN(C(=O)CCc1ccccc1OC)c1nc(-c2ccc(S(C)(=O)=O)cc2)cs1 | ? | 8% | 8% | nt | ? | 1% | 10% | nt
CC1CCC(NC(=O)Cn2ncc3c4ccccc4n(Cc4ccc(Cl)cc4)c3c2=O)CC1 (stereo not given) | 24%[46.1 µM] | 0% | nt | -2.4% | ? | nt | nt | 2%
O=S1(=O)c2cccc3cccc(c23)N1Cc1ccc(-c2nnco2)cc1 | ? | -29% | -20% | -3.5% | ? | -9% | 1% | -20%
COc1ccc(C(=O)NCc2ccccc2)cc1Br | nt | -6% | 3% | 1.6% | 12% | 1% | -20% | 5%
COc1ccc(C(=O)Nc2ccccc2C(=O)O)cc1Cl | ? | 1% | -14% | -3.3% | -9% | -12% | -4% | 12%
CN(C)S(=O)(=O)c1ccc2c(c1)nc(CCC(=O)NCC1CCCCC1)n2C | 4% | -2% | -3% | 1.5% | -19% | 10% | -4% | 4%
COC(=O)c1ccc(CSc2ncnc3sc(C)c(C)c23)o1 | ? | nt | 3% | -0.5% | ? | 5% | -2% | 1%
COc1cccc(CNC(=O)c2cc(=O)[nH]c3ccc(S(=O)(=O)N4CCCC4)cc23)c1 | -7%[46.1 µM] | -16% | nt | -2.9% | 2%[46.1 µM] | nt | nt | 0%
Cc1ccc(S(=O)(=O)NCCc2csc3nc(-c4ccccc4C)nn23)cc1 | nt | 81%[activator] | nt | -8.4% | -1%[46.1 µM] | nt | nt | 7%
COC(=O)c1ccc(CNC(=O)C2CCC(=O)N(CCCc3ccccc3)C2)cc1 (stereo not given) | nt | -17% | 4% | nt | nt | 0% | -2% | nt
C[N+]1(CCCCCCC(=O)/C=N/O)CCCCCC1 | 8% | -6% | 9% | 9.3% | 11% | 10% | 20% | -5%
O=C(CSc1nc(O)c(C2CCCCC2)c(=O)[nH]1)Nc1ccccc1Cl | 6%[46.1 µM] | -2% | 25% | nt | nt | 2% | -16% | nt
CN1CCN(S(=O)(=O)c2cccc(C(=O)Nc3ccccc3N3CCOCC3)c2)CC1 | nt | -5% | 0% | nt | nt | 3% | 3% | nt
C=CCN1C(=O)/C(=C\C(C)=C\c2ccccc2)SC1=S | 15%[46.1 µM] | 3% | 17% | nt | 20%[46.1 µM] | -1% | 11% | nt
COc1cc(NC(=O)COc2cccc(C)c2C)ccc1NC(=O)c1ccco1 | -16%[46.1 µM] | -7% | 7% | nt | nt | -2% | -4% | nt
CC(C)CCN1CCN(Cc2cccn2-c2ccccn2)CC1CCO (stereo not given) | -1%[46.1 µM] | -18% | 2% | nt | 3% | 0% | -15% | nt
CC(=O)Nc1ccc(N(C(=O)Cn2nnc3ccccc32)C(C(=O)NCc2ccccc2)c2ccc(C)cc2)cc1 (stereo not given) | 12%[46.1 µM] | -9% | nt | -2.8% | ? | nt | nt | ?
COc1ccc(-c2[nH]c(-c3cccc(OC)c3)nc2SCC(=O)NC2CCCC2)cc1 | ? | -11%&-10% | nt | 4.0%&-4.8% | ? | 1% | 2% | 10%&17%
CN(C(=O)Cn1c(=O)oc2cc(S(=O)(=O)N3CCCC3)ccc21)C1CCCCC1 | nt | -25% | -5% | nt | nt | 1% | 0% | nt
CN(C)c1cccc2c1c(NS(=O)(=O)c1cn(C)cn1)nn2C | nt | -4% | ? | nt | nt | -3% | 14% | nt
COC(=O)c1cc(NC(=O)C2COc3ccccc3O2)cc(C(=O)OC)c1 (stereo not given) | -12% | -18% | -1% | -5.6% | -4% | -6% | -7% | 4%
Cc1ccc(C(=O)Nc2cccc(-c3cn4ccccc4n3)c2)cc1 | ? | 7% | -11% | nt | -27%[46.1 µM] | -5% | 5% | nt
Cc1ccc(SC[C@H](c2ccccc2)N2CCN(C)CCC2=O)cc1 | nt | 50%[activator] | -5% | nt | nt | 5% | -11% | nt
COC(=O)c1cccc(Cn2c(Cl)c(/C=N/Nc3ccccc3C)sc2=O)c1 | -22% | -11% | -5% | -8.6% | ? | -16% | 2% | 13µM*
CCC(=O)Oc1ccc(C(CC)C(CC)c2ccc(OC(=O)CC)cc2)cc1 (stereo not given) | -39% | -24% | -7% | -5.3% | ? | -15% | -1% | -28%
CCNC(=S)N(CCc1c(C)[nH]c2ccc(F)cc12)Cc1cccnc1 | nt | 0% | -1% | nt | nt | -1% | -9% | nt
CCOC(=O)c1cccc(S(=O)(=O)N2CCCC2)c1 | 5% | 4% | 8% | 0.4% | -11% | 8% | 6% | -2%
CC(=O)NC1C(Oc2ccccc2C)OC(CO)C(O)C1O (stereo not given) | nt | -12% | -3% | nt | nt | 1% | 11% | nt
CCCN(CCC)S(=O)(=O)c1ccc(C(=O)Nc2c(C)n(C)n(-c3ccccc3)c2=O)cc1 | 5%[46.1 µM] | 6% | nt | nt | -13% | -2% | -5% | nt
CC1CCc2c(sc3ncnc(SCC(=O)c4ccccc4)c23)C1 (stereo not given) | 3% | 25% | 12% | -1.5% | -1% | 3% | -1% | -25%
CC(Sc1n[nH]c(-c2ccccc2)n1)C(=O)c1c(N)n(C)c(=O)n(C)c1=O (stereo not given) | 9% | -26% | nt | nt | ? | -2% | -10% | nt
C=CCNc1nc(-c2ccccc2)c(C(=O)OCC)cc1C#N | ? | ? | -10% | -15% | ? | -4% | -2% | -9%
Cc1nc2cc3c(cc2c(C)c1C(=O)OC(C)C)OCO3 | 2% | -16% | 8% | -3.6% | 0% | 12% | -10% | -2%
Clc1ccc(-c2nc3cnccn3c2Nc2ccc3c(c2)OCO3)cc1 | nt | 0% | 15% | -7.5% | nt | -24% | 49% | -2%
CCN1C(=O)CSC1=NC1C2CC3CC(C2)CC1C3 (stereo not given) | -10% | ? | -106% | -0.8% | -25% | -7% | -2% | -2%
Fc1ccc(COc2ccc(Br)cc2CNCC2CCCO2)cc1 (stereo not given) | 4µM* | -22% | nt | nt | ? | 1% | 7% | nt
O=C(NNC(=O)c1cc2ccccc2cc1O)NC1CCCCC1 | nt | 60%[activator] | 21% | nt | nt | 14% | 9% | nt
